SARS PLP yeast: inhibitors of SARS-CoV papain-like protease in yeast. S. cerevisiae expressing SARS-CoV PLpro, growth rescue; control for the full effect not named in the record. AID 485353. Potency, µM (top dose mostly 32.9 µM), for inactives: at the top dose activity, positive = growth rescue. actives 0.19% (n = 330,000); active means well fitted rising curve with a large enough effect; inconclusive means small, poorly fitted or top-dose-only effect; inactive means no such curve, though single readings can be large or run the other way; further: 0% is about no effect; nearly all actives have a fitted effect of over 55% in size; growth read by luminescence after 48 h
MARV entry inh: Marburg virus entry inhibition. actives 1.8% (n = 300,000). Marburg virus pseudotyped entry inhibition, cell reporter; control for the full effect not named in the record; about a third of the inactives were read at about 46 µM. Potency, µM (doses to about 37.8 µM), without a hit: top-dose activity change, negative = inhibition, usual class: inhibitors. AID 540276; active = well fitted inhibition curve with a large enough effect; inconclusive = small, poorly fitted or top-dose-only effect, or effect the other way; inactive = flat fitted curve, though single readings scatter; tested in HEK293 cells; about a fifth of its hits are not listed in these tables; further: on the % scale 0 is the no-effect control and ±100 the full control effect; luciferase read-out
RE007 growth inh: less growth of the S. pombe RE007 Vpr strain; S. pombe RE007 Vpr strain, BacTiter-Glo ATP luminescence, 24 h; control for the full effect not named in the record; Potency, µM (titrated, usually from 92.2 µM), for the others: at the highest dose activity change, negative = less growth; actives 0.21% (n = 360,000); active = well fitted falling curve with a large enough effect; inconclusive = small, poorly fitted or top-dose-only effect; inactive = no such curve, though single readings can be large or run the other way;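 further: on the % scale 0 is the no-effect control and ±100 the full control effect; nearly all actives have a fitted effect of over 50% in size; the assay follows cell death caused by Vpr and the record does not say whether a fall means rescue or toxicity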
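Fission yeast RE007 carrying one integrated HIV-1 vpr copy, seeded at OD 0.01 in PMG+AL medium with 23 nL pinned compound. Grown 24 h at 30 degrees; viability read by BacTiter-Glo luminescence after 5 min.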
LASV entry inh: Lassa virus entry inhibition; Lassa virus pseudotype entry inhibition, cell reporter; control for the full effect not named in the record; Potency, µM (doses to about 37.9 µM), without a hit: at the top dose activity change, negative = inhibition, most hits filed as inhibitors; actives 1.2% (n = 300,000); active means well fitted inhibition curve with a large enough effect; inconclusive means small, poorly fitted or top-dose-only effect, or effect the other way; inactive means flat fitted curve, though single readings scatter; tested in HEK293 cells; further: on the % scale 0 is the no-effect control and ±100 the full control effect; nearly all actives have a fitted effect of over 50% in size; luciferase read-out
Cruzain inh noDet: inhibitors of Trypanosoma cruzi cruzain without detergent | AID 1476 | P25779 | actives 2.3% (n = 200,000) | purified cruzain, Z-FR-AMC fluorescence, no detergent | Potency, µM, for the others: max response, negative = inhibition, hits mostly inhibitors;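 further: plate controls were enzyme without inhibitor for no effect and buffer without enzyme for full effect; nearly all actives have a fitted effect of over 40% in size; top concentration of the series not given in the record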
Target sequence (P25779 123-467 limits assumed): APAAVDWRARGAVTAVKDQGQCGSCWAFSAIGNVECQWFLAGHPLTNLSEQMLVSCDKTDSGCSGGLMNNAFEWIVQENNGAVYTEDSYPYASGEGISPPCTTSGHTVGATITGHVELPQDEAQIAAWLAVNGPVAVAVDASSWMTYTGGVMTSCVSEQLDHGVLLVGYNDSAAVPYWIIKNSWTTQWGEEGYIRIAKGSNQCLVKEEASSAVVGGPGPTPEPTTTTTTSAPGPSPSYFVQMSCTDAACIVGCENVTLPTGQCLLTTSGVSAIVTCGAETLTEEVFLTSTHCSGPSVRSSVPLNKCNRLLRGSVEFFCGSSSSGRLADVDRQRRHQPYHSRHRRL
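Detergent-free condition (0.00005% Triton X-100) in acetate buffer pH 5.5 with DTT. 1.5 nM enzyme and compound were pre-mixed 15 min, then 2 uM Z-FR-AMC substrate added; reaction progress from fluorescence change between first and third reads (60 s).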
Cruzain inh Det: cruzain (T. cruzi) inhibition with detergent | actives 0.43% (n = 200,000) | Potency, µM, for inactives: max response, negative = inhibition, actives largely listed as inhibitors | AID 1478 | purified cruzain, Z-FR-AMC fluorescence, 0.01% Triton;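 further: plate controls were neutral wells for no effect and buffer without enzyme for full effect; nearly all actives have a fitted effect of over 40% in size; top concentration of the series not given in the record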
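Detergent-containing arm of a paired screen for aggregation-based inhibition: 0.01% Triton X-100 present. Cruzain at 1.5 nM cleaved 2 uM Z-FR-AMC at pH 5.5 with 5 mM DTT; AMC fluorescence gain over 60 s measured activity.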
NS1 function inh: blocks influenza NS1 protein function; S. cerevisiae slowed by influenza A NS1, growth recovery by OD600; Potency, µM (top dose mostly 46.1 µM), inactives show at the highest dose activity, positive = more growth; actives 0.4% (n = 270,000); AID 2326; active means well fitted rising curve with a large enough effect; inconclusive means small, poorly fitted or top-dose-only effect; inactive means no such curve, though single readings can be large or run the other way; further: nearly all actives have a fitted effect of over 50% in size
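Compounds were scored for reversing the slow growth caused by influenza A NS1 in S. cerevisiae, measured by optical density at 600 nm. Assay medium contained 2% galactose at pH 6.0; NS1-free yeast of the same strain were the positive control.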
StopGo reporter: lowers the luciferase signal of an FMDV 2A StopGo reporter | human cells with a luciferase reporter of 2A StopGo recoding; control for the full effect not named in the record | actives 1.2% (n = 410,000) | Potency, µM (titrated, usually from 57.9 µM), for inactives: at the highest dose signal change, negative = less light | AID 1159524; active = well fitted falling curve with a large enough effect; inconclusive = small, poorly fitted or top-dose-only effect; inactive = no such curve, though single readings can be large or run the other way; tested in HEK293T cells; further: on the % scale 0 is the no-effect control and ±100 the full control effect; nearly all actives have a fitted effect of over 45% in size; luciferase light after 4 h
The depositor's hits bear a star; ? = inconclusive; nt = no result given; & = joins results of further samples; [ ] = another dose, or the depositor's remark. Unless noted, the call rests on the fitted dose curve; in most records, active means well fitted curve in the direction sought with a large enough effect; inconclusive means small, poorly fitted or top-dose-only effect, or another doubt; inactive means no such curve, though single readings can be large; an effect the other way counts as inactive or inconclusive. Potency means the concentration at half of the fitted maximal effect. Random draw from the library. Share with any hit: about 4.7%.

SMILES | SARS PLP yeast | MARV entry inh | RE007 growth inh | LASV entry inh | Cruzain inh noDet | Cruzain inh Det | NS1 function inh | StopGo reporter
COc1ccc(-c2noc(-c3ccc(NCc4cccnc4)c([N+](=O)[O-])c3)n2)cc1OC | nt | 1%[46.1 µM] | nt | -5%[46.1 µM] | 26% | -0.2% | nt | -14%
Cc1ccc(-c2c(C(=O)N/N=C/c3ccc(C)o3)nnn2-c2nonc2N)cc1 | -2% | nt | 2% | nt | nt | nt | 15% | 0%
CCOCCSc1c(C)cnc2c1c(=O)n(C)c(=O)n2C | nt | nt | nt | -1%[46.1 µM] | -8% | -3.3% | nt | 0%
NS(=O)(=O)c1ccc(NC(=O)COC(=O)C23CC4CC(CC(C4)C2)C3)cc1 | -19% | ? | -23% | -21% | -18% | -1.8% | 21% | -14%
CN(c1ccccc1)S(=O)(=O)c1cccc(NS(=O)(=O)c2cccc(C(=O)O)c2)c1 | 0% | ? | -8% | 6% | nt | nt | nt | -14%
CC(OC(=O)c1ccco1)C(=O)NCc1cccs1 (stereo not given) | -10% | 2% | 2% | 16% | 0% | -3.2% | 5% | 20%
COCCN(CCOC)S(=O)(=O)c1ccc(OC)cc1 | 2% | ? | -14% | -3% | -9% | 3.3% | 5% | -14%
COc1cccc(NC(=O)Nc2nnc(CC(=O)Nc3ccccc3)s2)c1 | 0% | nt | -15% | nt | nt | nt | -1% | -14%
COc1cc(C)c(Cl)c(C)c1S(=O)(=O)NCc1cccnc1 | 9% | 0% | 1% | 3% | 15% | 5.7% | 10% | 78%[activator]
O=C1OC(c2ccccc2)(c2cc(Br)c(O)c(Br)c2)c2ccccc21 (stereo not given) | nt | -9%[46.1 µM] | 3% | 25%[46.1 µM] | nt | nt | nt | -18%
O=C(CS(=O)(=O)c1ccc2ccccc2c1)N1CCCCCC1 | -3% | 1%[46.1 µM] | -4% | 1% | nt | nt | nt | 31%[activator]
N#Cc1ccccc1/C=C/C(=O)N1CCOCC1 | 1% | 30% | -11% | 10% | nt | nt | -4% | -3%
COc1ccc(-n2c(Cc3cccn3C)nnc2SCC(=O)Nc2ccc3c(c2)OCO3)cc1 | -4% | -9%&-9% | -6% | -7% | 19% | -1.1% | -6% | -8%
N/C(=N\OC(=O)COc1ccc(Br)cc1Cl)c1ccncc1 | -42% | ? | 6% | ? | -5% | -7.6% | -17% | 14%
O=c1cc(-c2ccccc2)[nH]c2cc(F)ccc12 | 1% | -22% | -17% | -27% | -4% | -1.6% | 10% | 2%
COc1ccc(OC)c(-n2c(-c3cc(-c4ccccc4)n[nH]3)n[nH]c2=S)c1 | -5% | ? | -9% | -2% | -1% | -4.5% | -17% | -20%
Cc1ccc(CNC(=O)Cn2c(=O)cc(-c3ccccc3)c3c(C)nn(C)c32)cc1 | nt | nt | nt | -3%[46.1 µM] | ? | -8.9% | nt | 2%
Cn1c(=O)c2cc(C(=O)NCCCN3CCN(c4ccc(F)cc4)CC3)sc2c2ccccc21 | nt | 2%[46.1 µM] | nt | 13%[46.1 µM] | -3% | -2.7% | nt | ?
CCOc1ccc(-c2[nH]ncc2-c2ccc(Cl)cc2)c(O)c1 | -9% | nt | ? | nt | nt | nt | -1% | -15%
Cc1ccc(C(=O)NCCc2ccccc2)cc1N1CCCC1=O | ? | nt | 4% | nt | nt | nt | 3% | 10%
CCCCC(c1nnnn1CCOC)N1CCN(CC)CC1 (stereo not given) | 8% | 17% | -7% | 1% | -10% | 0.6% | 12% | -1%
O=C(CNS(=O)(=O)c1cccc(Cl)c1)Nc1ccc(-c2nc3ccccc3s2)cc1 | 1% | ? | -7% | 10% | ? | 4.8% | 6% | 3%
COCCn1c(SCC(=O)Nc2cccc(OC)c2)nnc1-c1ccccc1 | 1% | 5% | 9% | -2% | 8% | 3.9% | 6% | 7%
O=C(CSC1=Nc2ccccc2C2=NC(Cc3ccccc3)C(=O)N12)Nc1cccc(Cl)c1 (stereo not given) | nt | nt | nt | ? | -17% | -5.9% | nt | -24%
CC(C)c1oc(=O)cc2c1[C@@H](O)[C@H]1OC(=O)[C@@]3(C)C[C@@H](O)[C@@H](O)[C@@]2(C)C13 (stereo not given in full) | 4% | 3.3µM* | -7% | 6.5µM* | 8% | -0.3% | 17% | ?
SMILES | SARS PLP yeast | MARV entry inh | RE007 growth inh | LASV entry inh | Cruzain inh noDet | Cruzain inh Det | NS1 function inh | StopGo reporter
Cc1ccccc1OCCNC(=O)CSc1ccc(C(F)(F)F)cc1[N+](=O)[O-] | 2% | ? | 0% | -2% | 21% | -13% | -14% | ?
CC(C)N(Cc1nc(-c2ccccc2)no1)C(=O)c1ccc([N+](=O)[O-])cc1 | 1% | nt | -15% | nt | nt | nt | -3% | -1%
CCCOc1ccc2oc(=O)c3c(c2c1)CCCN3C(=O)CN1CCN(C(=O)c2ccco2)CC1 | 5% | nt | nt | nt | ? | -7.0% | -24% | nt
Cn1cc(CN2CCC(n3nccc3NC(=O)c3ccccc3Cl)CC2)c2ccccc21 | -3% | nt | 6% | nt | nt | nt | 3% | -24%
O=C(O)CSc1nnc(Cc2ccccc2)n1-c1ccccc1 | -1% | 19% | 5% | 15% | -2% | -1.0% | 9% | 17%
COc1ccc(NC(=O)/C=C/C(=O)O)c([N+](=O)[O-])c1 | -3% | 11%[46.1 µM] | -9% | -3% | nt | nt | 6% | 5%
CCc1ccc(C(C)NC(=O)C2CCCC2)cc1 (stereo not given) | -1% | 6%[46.1 µM] | 18% | -6%[46.1 µM] | nt | nt | -4% | -10%
CC(NC(=O)COC(=O)CN1C(=O)NC2(CCCC2)C1=O)c1ccc(F)cc1 (stereo not given) | nt | 7% | 0% | 4% | nt | nt | nt | -12%
Nc1nnc(SCC(=O)OCc2ccc(Cl)c(Cl)c2)s1 | -4% | 3% | nt | 0% | -8% | -7.2% | 4% | -14%
COc1ccc2[nH]c3c(=O)n4c(nc3c2c1)SCC4 | -2% | ? | -6% | -3%[46.1 µM] | nt | nt | nt | 7%
Cc1ccc(NC(=O)c2nc[nH]c2C(=O)N2CCOCC2)c(C(=O)c2ccccc2)c1 | 1% | 2%[46.1 µM] | 14% | -3%[46.1 µM] | nt | nt | 1% | 16%
COc1ccc(N2CCN(c3ccc(S(=O)(=O)N(C(C)C)C(C)C)cn3)CC2)cc1 | -1% | 2%[46.1 µM] | ? | 1%[46.1 µM] | nt | nt | -27% | -24%
Cc1ccc(S(=O)(=O)NCCC(=O)OCC(=O)Nc2cccc(S(=O)(=O)NC3=NCCCCC3)c2)cc1 | 0% | -3% | -2% | 15% | nt | nt | nt | 11%
O=C1c2ccccc2NC(c2ccc(Cl)cc2Cl)N1Cc1ccccc1 (stereo not given) | -18% | -1%[46.1 µM] | 25% | -20% | ? | -12% | 18% | ?
Cc1cc(OC(=O)c2ccco2)c2c3c(c(=O)oc2c1)CCC3 | 0% | ? | 3% | -9% | -3% | -5.0% | 6% | nt
COC(=O)c1cnn2c1C(=O)N(Cc1cccs1)CC2 | 2% | 20%[46.1 µM] | 10% | 1%[46.1 µM] | nt | nt | nt | 6%
Cc1ccc(CSc2nnc([C@@H]3CCCN3)o2)cc1 | -14% | -2% | 3%[3.69 µM] | 2% | -5% | 0.0% | 16% | -13%
Nc1nncn1C(=O)c1c(Cl)cccc1Cl | 2% | 7% | -4% | 3% | -2% | 4.5% | -2% | -6%
N#Cc1ccc(C(c2nnnn2Cc2ccccc2)N2CCCC2)cc1 (stereo not given) | 9% | -28%[46.1 µM] | 9% | 1% | 1% | 4.8% | -4% | -1%
C=C(C)CN(CC)C(=O)c1ccc(OC2CCN(S(=O)(=O)N(C)C)CC2)cc1 | 0% | nt | 11% | nt | nt | nt | 1% | 3%
Cc1ccc(-c2nnc(NC(=O)c3ccco3)o2)c(C)c1 | 2% | ? | -2% | -22%[46.1 µM] | nt | nt | nt | 5%
O=C(OCC(=O)c1ccccc1Cl)C1=NN(c2ccccc2)C(=O)CC1 | -1% | 1% | 1% | 23% | nt | nt | nt | 46%[activator]
CCOC(=O)C1C(c2ccc([N+](=O)[O-])cc2)C2C(=O)NN=C2CC1(C)O (stereo not given) | 4% | 2%[46.1 µM] | 0% | -2%[46.1 µM] | nt | nt | 5% | -6%
COC(=O)c1c(N)n(CCCN2CCOCC2)c2nc3ccccc3nc12 | 4% | 9% | 4% | 10% | ? | -6.2% | -6% | -12%
C=C(C)C(=O)N1CC2(CC(c3cccc(NC(=O)CCCCC)c3)=NO2)C[C@H]1C(N)=O (stereo not given in full) | 2% | nt | 12% | nt | nt | nt | 0% | -1%
CCC1=[N+](CC(=O)c2ccc(Br)cc2)CCn2c(C)ccc21 | 7% | nt | -14% | nt | nt | nt | 7% | -13%
Cc1ccc(CNC(=O)C2CCCN(c3nc(C)cc(C)n3)C2)cc1 (stereo not given) | 0% | nt | -13% | nt | nt | nt | 3% | -1%
Cn1cc(C(=O)N2CCN(c3cccc(Cl)c3)CC2)c(=O)c2cc(S(=O)(=O)N3CCCC3)ccc21 | nt | -4%[46.1 µM] | nt | -5%[46.1 µM] | 5% | -3.6% | nt | 13%
CCOC(=O)/C=C1/SCC(=O)N1CCOc1cccc(Br)c1 | nt | -19%[46.1 µM] | 4% | -6%[46.1 µM] | nt | nt | nt | 8%
CCCOc1ccc(-c2nnn(CC(=O)c3ccc4c(c3)OCCO4)n2)cc1 | -10% | -4% | 9% | -12% | -9% | -6.1% | -24% | nt

Nothing new here: an excerpt of the list.
SMILES | SARS PLP yeast | MARV entry inh | RE007 growth inh | LASV entry inh | Cruzain inh noDet | Cruzain inh Det | NS1 function inh | StopGo reporter
Cc1ccccc1OCCNC(=O)CSc1ccc(C(F)(F)F)cc1[N+](=O)[O-] | 2% | ? | 0% | -2% | 21% | -13% | -14% | ?
CC(C)N(Cc1nc(-c2ccccc2)no1)C(=O)c1ccc([N+](=O)[O-])cc1 | 1% | nt | -15% | nt | nt | nt | -3% | -1%
CCCOc1ccc2oc(=O)c3c(c2c1)CCCN3C(=O)CN1CCN(C(=O)c2ccco2)CC1 | 5% | nt | nt | nt | ? | -7.0% | -24% | nt

Bioassay records (PubChem BioAssay)
